gsp ag = qHTS for Agonist of gsp, the Etiologic Mutation Responsible for Fibrous Dysplasia/McCune-Albright Syndrome: qHTS | actives 0.13% (n = 340,000) | Potency, µM (highest dose often 76.9 µM), for inactives: at the top dose activation (cAMP increase), most hits filed as activators | gsp mutant cells, cAMP HTRF, 30 min; control for the full effect not named in the record | AID 624287, 2012; active = well fitted activation curve with a large enough effect; inconclusive = small, poorly fitted or top-dose-only effect, or another doubt; inactive = no such curve, though single readings can be large or run the other way; cell line not stated here;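 note: phosphodiesterase inhibitor Ro 20-1724 added with compounds to block cAMP breakdown; potency is the fitted concentration of half-maximal effect; nearly all actives have a fitted effect of over 60% in size; about a fifth of the inactives were tested at one dose only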
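Cells in DMEM/10% FBS with G418 were pretreated with compounds in DMSO plus […] (300 uM stock) for 30 min at 37C. cAMP was measured by HTRF (cAMP-d2 plus anti-cAMP antibody-K) after 30 min at room temperature.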
gsp antag = qHTS for Antagonists of gsp, the Etiologic Mutation Responsible for Fibrous Dysplasia/McCune-Albright Syndrome: qHTS | gsp-mutant cells, cAMP HTRF, 30 min; control for the full effect not named in the record | Potency, µM (doses to about 76.9 µM), inactives show top-dose activity change, negative = inhibition, actives largely listed as inhibitors | actives 0.4% (n = 340,000); active = falling curve of any shape with a large fitted effect; inconclusive = falling curve, mostly with a smaller effect; inactive = flat or rising curve; cell line not stated here;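 note: intracellular cAMP measured with PDE inhibitor Ro 20-1724 present during compound exposure; potency is the fitted concentration of half-maximal effect; % is set by controls: 0 for no effect and ±100 for the full control effect; nearly all actives have a fitted effect of over 65% in size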
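Cells, 2000/well, grown 16–24 h in DMEM 10% FBS with 0.5 mg/ml G418, then compounds plus […] (300 uM addition stock), 30 min at 37C. cAMP read by HTRF (cAMP-d2 and anti-cAMP antibody-K in lysis buffer) after 30 min RT.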
D2 potentiator = Beta-Arrestin HTS for Positive Allosteric Modulators of the Human D2 Dopamine Receptor: Potentiators; D(2) dopamine receptor (Homo sapiens), P14416; DiscoveRx D2 beta-arrestin cells, luminescence, 90 min; 100% = 57 uM dopamine signal; potentiation, % (test concentration not listed); actives 0.23% (n = 360,000); AID 624464, 2012; active = potentiation of 50% or more; inconclusive = 30% to 50%; inactive = 30% or less;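 note: compound concentration not given in the record; tested on top of an EC20 dose of dopamine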
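D2 cells co-treated with compound plus 50 nM dopamine (EC20) for 90 min at 37 deg C to detect potentiation. Beta-arrestin recruitment was read as enzyme-fragment luminescence after 1 h at ambient temperature. Full response was set by 57 uM dopamine.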
Six1-Eya2 blk = qHTS Assay for Inhibitors of the Six1/Eya2 Interaction. AlphaScreen GST-Six1/His-Eya2 binding, biochemical; hits give low values; control for the full effect not named in the record. Homeobox protein SIX1 (Homo sapiens) + Protein phosphatase EYA2 (Homo sapiens), …. activity change, % (concentration not given with the values). actives 0.56% (n = 360,000). AID 651725, 2012; in the data active = activity change below about -65%; inconclusive = about -30% to -65%; inactive = above about -30%; note: % is set by controls: 0 for no effect and ±100 for the full control effect
Target sequence (O00167 whole entry, looked up): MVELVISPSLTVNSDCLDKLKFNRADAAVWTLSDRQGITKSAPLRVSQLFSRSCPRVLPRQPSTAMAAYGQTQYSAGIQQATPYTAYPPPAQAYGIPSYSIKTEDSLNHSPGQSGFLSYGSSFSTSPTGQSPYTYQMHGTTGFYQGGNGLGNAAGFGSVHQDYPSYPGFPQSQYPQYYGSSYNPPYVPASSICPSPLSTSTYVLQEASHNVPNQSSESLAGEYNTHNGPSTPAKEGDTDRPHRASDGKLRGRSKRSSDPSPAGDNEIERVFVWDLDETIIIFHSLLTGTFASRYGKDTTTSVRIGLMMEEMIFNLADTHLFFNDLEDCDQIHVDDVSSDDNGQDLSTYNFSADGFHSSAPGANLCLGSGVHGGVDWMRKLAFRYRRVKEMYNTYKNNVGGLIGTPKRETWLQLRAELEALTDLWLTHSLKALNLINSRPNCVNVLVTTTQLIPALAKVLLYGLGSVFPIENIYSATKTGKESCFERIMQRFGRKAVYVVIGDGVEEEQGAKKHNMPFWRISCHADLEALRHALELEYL
Target sequence (Q15475 whole entry, looked up): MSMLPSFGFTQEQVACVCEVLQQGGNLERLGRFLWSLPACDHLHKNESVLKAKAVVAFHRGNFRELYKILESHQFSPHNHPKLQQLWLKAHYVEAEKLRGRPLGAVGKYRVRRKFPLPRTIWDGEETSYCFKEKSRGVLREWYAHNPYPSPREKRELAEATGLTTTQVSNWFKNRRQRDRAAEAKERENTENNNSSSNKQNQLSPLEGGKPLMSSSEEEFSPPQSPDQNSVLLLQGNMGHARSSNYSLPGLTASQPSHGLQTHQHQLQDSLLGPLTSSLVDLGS
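AlphaScreen luminescence read after one hour at 37 °C in darkness. Pin-transferred compounds met GST-Six1 and His-Eya2 protein (5X stock 250 nM/500 nM) plus glutathione donor and Ni-chelate acceptor beads (5X, 50 ug/mL).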
CtBP-E1A blk = qHTS Assay for Inhibitors of the CtBP/E1A Interaction | AlphaScreen GST-E1A/His-CtBP binding, 1536-well; hits give low values; control for the full effect not named in the record | activity change, % (no concentration beside the values) | actives 0.49% (n = 340,000); in the data active means activity change below about -65%; inconclusive means about -30% to -65%; inactive means above about -30%; note: % is set by controls: 0 for no effect and ±100 for the full control effect; compound concentration not given in the record
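In 5 uL wells, 23 nL compound meets equimolar GST-E1A and His-CtBP (5X stock 125 nM each) for 2 h, 37 °C. Beads (5X, 50 ug/mL) then 1 h, 37 °C, dark.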
D2 agonist = Beta-Arrestin HTS for Positive Allosteric Modulators of the Human D2 Dopamine Receptor: Agonists; activation, % (test concentration not listed); DiscoveRx PathHunter D2 beta-arrestin, luminescence, 90 min; 100% = 57 uM dopamine signal; AID 624465, 2012; actives 0.084% (n = 360,000); D(2) dopamine receptor (Homo sapiens), P14416; in the data active = activation above about 40%; inconclusive = about 15% to 40%; inactive = below about 15%; note: compound concentration not given in the record; the text of the record calls up to 30% inactive
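DiscoveRx PathHunter D2 beta-arrestin cells (2,100/well) attached overnight, then compound-stimulated 90 min at 37 C in HBSS/10 mM HEPES/0.1% Tween-20 buffer; beta-galactosidase complementation read by luminescence after 1 h at ambient temperature. Dopamine 57 uM final (EC100) as control.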
Numbers without * were called inactive; u = inconclusive; x = no result given; [ ] = another dose, or the depositor's remark.

SMILES	gsp ag	gsp antag	D2 potentiator	Six1-Eya2 blk	CtBP-E1A blk	D2 agonist
Cc1cnc(C(=O)OCc2c(C)cc(C(C)(C)C)cc2C)cn1	-31%[inhibitor]	4%	1	1	13	2.9
O=C1NC(c2ccc(Cl)cc2)=COc2ccccc21	-7%[15.4 µM]	13%	2	9	-8	-3.7
COc1ccc(C(=O)N2CCN(c3ccc(NC(=O)c4cccnc4)cc3)CC2)cc1	-63%[inhibitor]	-26%	-2	1	-2	0.9
Cc1ccc(Cl)cc1-c1ccc(/C=N/n2cnnc2)o1	3%	3%	-27	-3	-4	1.4
CC(=O)Nc1ccc(Oc2cc(NC(C)=O)cc([N+](=O)[O-])c2)cc1	8%[15.4 µM]	x	2	1	2	-9.4
COc1ccccc1CNC(=O)C[n+]1ccccc1	16%	-2%	-20	8	0	-1.9
COc1ccc(-c2nc3cc(C)ccn3c2NCc2ccc3c(c2)OCO3)cc1	u	u	-2	-12	x	u
CC(C)Cn1cc(C(=O)NCCCOC(C)C)c2c3ccccc3n(C)c2c1=O	18%	5%	16	-15	-15	-4.0
COc1ccc(CSC2=CS(=O)(=O)c3ccccc3N2)cc1	-11%[15.4 µM]	-6%	-1	-22	-26	-0.5
Cc1ccc2c(c1)c1c3n2CCCNC3CCC1 (stereo not drawn)	23%	13%	-23	-13	-11	-0.7
Cc1cccc(Oc2ncnc3oc(-c4ccccc4)cc23)c1C	-47%[inhibitor]	u	-6	7	-11	1.2
CN(C)C=Nc1ncc2c3ccccc3n(CCN(C)C)c2c1C#N	-10%	-1%	-6	1	-7	-2.8
CCOc1ccc(-c2cc(CCCC(=O)NCc3ccco3)no2)cc1	0%	-5%	0	-2	2	-3.4
N/C(=N\c1nc2ccccc2o1)NC(=O)c1ccccc1NC(=O)c1ccccc1	-49%[inhibitor]	3%	4	9	1	-5.2
COC(=O)c1cc2cc(Cl)ccc2nc1SC	10%[15.4 µM]	4%	-5	21	0	-2.7
O=C(c1ccco1)N1CCN=C1SCc1cccnc1	-1%	5%	-13	-3	2	-3.9
Cc1cc(C(=O)N2CCCC(C)(C(=O)NS(=O)(=O)C3CC3)C2)n(C(C)(C)C)n1 (stereo not drawn)	x	x	-4	-1	1	1.4
C/C(=N/NC(=O)CCc1ccccc1)c1ccco1	u	12%	-4	3	1	-4.7
CC(=O)c1ccc(-n2nnnc2SCC(=O)Nc2sc(C)c(C)c2C#N)cc1	-35%[inhibitor]	-10%	-7	-1	x	0.3
CCCCC[C@H](O)/C=C/[C@H]1CCC(=O)[C@@H]1CCCCCCC(=O)N1CCCCC1CO (stereo partly drawn)	u	u	u	-7	7	u
CCOc1cc(C(=S)N2CCCCC2)ccc1OS(=O)(=O)c1ccc(Br)cc1	-15%	-26%	-1	-15	-16	-3.7
COc1ccccc1Nc1nc(N)nc(CSC(=S)N2CCCCC2)n1	-10%	2%	-12	-10	x	-5.4
COCCOCCn1c(CCCO)nc2ccccc21	-5%	-1%	0	-1	5	-2.0
CCOC(=O)N1CCN(c2c(NCc3ccc(N(C)C)cc3)c(=O)c2=O)CC1	-74%[inhibitor]	1%	-6	u	-1	-3.0
CCOC(=O)C(NC(=O)C1CCCN1C(=O)OCc1ccccc1)C(=O)OCC (stereo not drawn)	14%	-4%[15.4 µM]	-13	12	-3	-2.6
Cc1cccc(C)c1NS(=O)(=O)c1ccc(OCCNS(C)(=O)=O)cc1	-2%	1%	7	-22	1	1.6
Cc1sc2ncnc(SCC(=O)N3CCCCC3)c2c1C	-1%	-21%	-5	11	5	-0.8
O=C(COC(=O)CC1SC(N2CCCC2)=NC1=O)Nc1ccc(Br)cc1 (stereo not drawn)	9%	-5%	-13	3	1	-3.7
CC(=O)c1ccc(N2C(=O)CC(N3CCN(S(=O)(=O)c4ccc(C)c(C)c4)CC3)C2=O)cc1 (stereo not drawn)	-1%	-1%	0	-2	3	-1.9
Cc1ccc(NC(=O)CNC(=O)c2cccs2)cc1S(=O)(=O)Nc1ccc(Cl)cc1	7%[15.4 µM]	-9%	-3	u	-27	-0.3
O=C(Cn1nnc(-c2ccccc2NC(=O)c2ccccc2)n1)Nc1ccc2c(c1)OCCO2	11%	0%	4	2	-1	2.6
Cc1ccc(NC(=O)N2CCCN(Cc3ccc(F)cc3)C2)cc1C	-7%	5%	-41	7	-1	-0.2
Clc1cccc(N2CCN(Cc3nnc(-c4ccccc4)o3)CC2)c1	12%	-16%	-8	-2	-4	-5.3
O=C(CS(=O)(=O)Nc1ccc(F)cc1Cl)Nc1ccc(F)cc1Cl	6%[15.4 µM]	-4%	6	0	-4	4.3
Cc1cc(C(=O)CSc2nnc(-c3ccc(Cl)cc3)n2CC2CCCO2)c(C)n1C (stereo not drawn)	-37%[inhibitor]	-12%	2	-9	-17	0.1
COc1cccc(/C=C2\SC(=S)N(N3CCOCC3)C2=O)c1OC	u	-6%	-8	-4	-16	0.1
O=C(CNc1cccc(S(=O)(=O)N2CCCCC2)c1)Nc1ccc(C(F)(F)F)cc1	-1%	x	-7	-3	3	-0.3
COc1cc([N+](=O)[O-])ccc1NC(=O)C1C2C=CC(C2)C1C(=O)O (stereo not drawn)	-80%[inhibitor]	-1%	-10	0	x	-3.4
CCn1c(C(=O)O)c(CC(=O)NC2CCCCCC2)c2ccccc21	-30%	21%	-6	0	-1	1.6
CCn1cc(CNC(=O)CSc2nc(-c3ccc(OC)c(OC)c3)cc(C(F)(F)F)n2)c(C)n1	8%[15.4 µM]	5%	-3	-12	-4	-5.0
Cc1occc1C(=O)NNC(=O)c1ccc(Br)o1	5%[15.4 µM]	12%	2	3	5	-3.9
Nc1nc(NCCO)nc(NCC2CCCO2)c1[N+](=O)[O-] (stereo not drawn)	5%[15.4 µM]	9%	-10	2	0	-3.3
COc1ccc(Cc2nnc(SCc3nc4ccccc4c(=O)[nH]3)o2)cc1	3%	4%	-10	3	3	0.3
CCC(C)C(=O)Nc1nc(-c2ccc3c(c2)NC(=O)CO3)cs1 (stereo not drawn)	-21%	-15%	u	-13	-10	2.1
CCCn1cc(C(=O)N(C)C2CCCN(Cc3ccccc3F)C2)c(C)n1 (stereo not drawn)	-3%	-3%	4	1	1	-0.9
Cc1[nH]c(=S)c(C#N)c(C)c1CCC#N	u	1%	-7	-14	-1	-6.1
C/C(=N\Nc1nc2ccccc2[nH]1)c1ccc(Cl)s1	-20%[15.4 µM]	-9%	12	2	-14	6.5
CCCCOC(=O)c1ccc(NC(=S)N2CCN(c3ncc4c(=O)c(C(=O)O)cn(CC)c4n3)CC2)cc1	-11%	-32%	-3	4	-1	-0.9
CC(C)(C)c1cc(C(=S)N2CCN(CCO)CC2)cc(C(C)(C)C)c1O	3%	-13%	-15	-1	-4	-3.3
Cc1ccc(S(=O)(=O)NC(CC(C)C)C(=O)N2CCOCCOCCOCCOCC2)cc1 (stereo not drawn)	-4%[15.4 µM]	8%	0	10	-9	-4.9

Four compounds out of the list above, sorted by their value in CtBP-E1A blk, low to high.
SMILES	gsp ag	gsp antag	D2 potentiator	Six1-Eya2 blk	CtBP-E1A blk	D2 agonist
C/C(=N\Nc1nc2ccccc2[nH]1)c1ccc(Cl)s1	-20%[15.4 µM]	-9%	12	2	-14	6.5
CC(C)(C)c1cc(C(=S)N2CCN(CCO)CC2)cc(C(C)(C)C)c1O	3%	-13%	-15	-1	-4	-3.3
CCCCOC(=O)c1ccc(NC(=S)N2CCN(c3ncc4c(=O)c(C(=O)O)cn(CC)c4n3)CC2)cc1	-11%	-32%	-3	4	-1	-0.9
Nc1nc(NCCO)nc(NCC2CCCO2)c1[N+](=O)[O-] (stereo not drawn)	5%[15.4 µM]	9%	-10	2	0	-3.3

(next part)
SMILES	gsp ag	gsp antag	D2 potentiator	Six1-Eya2 blk	CtBP-E1A blk	D2 agonist
Cc1nc(N2CCN(S(=O)(=O)c3ccccc3C#N)CC2)c2c(-c3ccccc3)csc2n1	u	u	6	-5	5	5.2
O=C(Cc1ccccc1)NCC(=O)N1CCN(c2ccc(F)cc2)CC1	-28%	x	-8	1	3	-0.8
Cc1ccc(/C=N/NC(=O)c2nnn(-c3nonc3N)c2-c2cccs2)cc1	u	-1%	-1	-3	x	-2.1
O=C(CCSc1ccc(Cl)cc1)N1CCN(c2ccc(O)cc2)CC1	-23%	-17%	4	13	-15	13
CCCCCCCC(=O)OCC(COC(=O)CCCCCCC)OC(=O)CCCCCCC	x	-1%	-4	5	-2	-3.3
O=C(Nn1cnc2ccccc2c1=O)c1ccc([N+](=O)[O-])cc1	-16%[15.4 µM]	9%	2	-3	-22	-19
Cc1ccc(C2(C)NC(=O)N(CC(=O)NNC(=O)c3ccccc3)C2=O)cc1 (stereo not drawn)	2%	10%	-7	3	x	-4.1
COc1cc2c(cc1OC)C(c1ccccc1[N+](=O)[O-])=NCC2	x	x	-2	-6	-12	4.5
CN1CCN(c2nc(-c3ccccc3O)nc3ccccc23)CC1	10%[15.4 µM]	-3%	-8	-4	-2	-4.5
Cc1ccc(C(=O)Nc2ccccc2C(=O)N2CC(C)OC(C)C2)cc1 (stereo not drawn)	-3%	x	-5	3	-5	0.3
Cc1ccccc1OCC(=O)Nc1ccc2c(c1)COC2=O	-4%	-10%	-6	0	-1	-4.0
CC1(C)C(=O)Nc2ccccc2N1C(=O)COC(=O)c1cc(S(C)(=O)=O)ccc1Cl	-66%[inhibitor]	-11%	-11	2	2	-3.2
CCO[C@@H]1OC(C(=O)NC2CC2)=C[C@H](C2CC2)[C@H]1CCCO	x	6%	2	7	-14	1.0
Cc1nc(N2CCN(C(=O)c3ccco3)CC2)c2oc3ccccc3c2n1	-6%	-4%	-2	-24	-17	0.1
COc1ccc(-n2nnnc2SCC(=O)Nc2ccccc2N2CCOCC2)cc1OC	-18%	23%	-2	-5	6	-1.2
COC(=O)c1cc(-c2ccc(OC)c(OC)c2)on1	-31%	12%	14	0	-1	-2.9
CC(=O)Nc1ccc(NC(=O)Nc2ccc(C)c(C)c2)cc1	-20%	7%	-6	-5	x	-0.9
CC(=O)Nc1ccc(CN2CCC(n3nccc3NC(=O)CCc3ccccc3)CC2)cc1	8%	9%	-11	0	-1	0.9
CC(C)CC(=O)NC(=S)Nc1sc2c(c1C(N)=O)CCC2	-11%[15.4 µM]	u	-8	15	-9	-10
COc1ccc(OCC(=O)OC2CCN(C)CC2)cc1	-43%[inhibitor]	8%	14	-1	0	-0.1

Bioassay records as filed in PubChem.
